BJeLR lethal: BJeLR cell viability loss | BJeLR (HRASV12) viability, CellTiter-Glo ATP luminescence, 48 h; reference of the scale not given here | inhibition, % (test concentration not listed) | 0.17% of 300,000 active | AID 1554;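 active = replicate mean above 50%; inconclusive = above 50% but judged a plate artefact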;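 note: 50 nL library stock added to about 25 µL; numbers are from one replicate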
Mtb hypoxia inh: Mtb hypoxia fluorescent reporter inhibition. fluorescence inhibition, % (concentration not given with the values). AID 1159583. M. tuberculosis hypoxia-regulated fluorescent reporter, fluorescence. 0.1% of 300,000 active;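 active = 35 to 45% if threefold the growth effect, above 45% if 1.5-fold the growth effect; inactive = the rest, general growth blockers included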;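 note: wells of about 50 µL received 100 nL stock; 0% = vehicle wells and 100% = reference inhibitor wells; whole bacteria with a GFP reporter of the hypoxia response; strong numbers were not always called active; many hits fall short of the cut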
PrP 5UTR inh: suppresses PrP 5' UTR mRNA reporter expression; 0.35% of 340,000 active; cell-based PrP 5' UTR mRNA reporter, plate reader; inhibition, % (test concentration not listed);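 active = every replicate at 50% or more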;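 note: 0 = median of the neutral control wells; tested in H4 reporter cells; numbers are from one replicate; inactives centre near -14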
Sa ugtP lethal: kills S. aureus RN4220 lacking UgtP; S. aureus RN4220 ugtP deletion, OD600 growth, 16 h; some inactives read as strong as hits; growth inhibition, % (no concentration beside the values); 0.54% of 330,000 active; AID 1259309;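 active = z-score under -3 and OD600 up to 0.15 on both plates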;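 note: plate controls were untreated wells for no effect and antibiotic for full effect; wells of about 80 µL received 100 nL stock; the first replicate is given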
Autofluor counter: compound fluorescence in toxin protease inhibitor counterscreen; AID 624483; fluorescence intensity (concentration not given with the values); 3.1% of 360,000 active; compound autofluorescence counterscreen, microsphere flow cytometry; active compounds read high;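 active = at least 3 SD above the mean of all compounds, about 16000 in these data; inconclusive = too few beads counted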;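 note: 100 nL of 1 mM stock went into each well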
RN4220 kill: S. aureus RN4220 growth inhibition; 0.33% of 330,000 active; inhibition, % (no concentration beside the values); OD600, 16 h;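 active = z-score of -3 or lower and OD600 up to 0.18 on both plates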;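 note: plate controls were untreated cells for no effect and reference antibiotic for full effect; stock transfer was 100 nL into about 80 µL; one replicate is shown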
Mtb hypoxia inh growth: second read-out of Mtb hypoxia inh, no call of its own (marks repeat the call); growth inhibition, %; measured here: M. tuberculosis growth (absorbance);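 0% = vehicle and 100% = reference antibiotic; read after six days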
* hit, by the source's call; ? = inconclusive; · = not tested or not shown.

Second line of a record – RN4220 kill, BJeLR lethal, PrP 5UTR inh, Mtb hypoxia inh growth, Sa ugtP lethal, Autofluor counter, Mtb hypoxia inh
CN1CCc2c(OCC(=O)NC3CCCCC3)cccc2C1=O
  2.6, -3.8, -25.1, 5.9, 1.8, 6125, 11.5
O=C(CSc1n[nH]c(-c2ccco2)n1)Nc1sc2c(c1C(=O)Nc1ccccc1)CCCC2
  3.8, 3.9, -17.0, -3.1, -9.4, 6761, -0.6
CCCCCN(C(=O)NC(=O)Nc1cccc(C)c1C)S(C)(=O)=O
  1.0, -10.9, -24.5, 5.0, 5.8, 3349, 17.7
O=C1Nc2cc(Cl)ccc2Nc2cscc21
  14.0, -11.6, -21.8, -8.1, 3.7, 3610, -13.6
CCC(C)N(C(=O)Cn1nnc2ccccc21)C(C(=O)NCc1ccco1)c1cccc(OC)c1 (centres undefined)
  10.8, -2.9, -17.4, ·, -2.4, 5311, ·
CC(=O)Nc1ccc(C(=O)OCC(=O)Nc2ccc([N+](=O)[O-])cc2C(F)(F)F)cc1
  3.8, 5.1, -18.6, 7.9, 8.3, 2018, 9.8
Cc1cc(OCc2cc(C(=O)N3CCN(CC4CC4)CC3)no2)cc(C)c1Cl
  1.5, 0.3, 5.2, 20.2, -7.4, 5614, 8.7
CCOc1ccc(N2C(=O)Nc3ccc(Br)cc3C2(O)C(=O)NCCN(C)C)cc1 (centres undefined)
  0.8, -10.3, -38.5, 4.2, 2.7, 3999, 6.9
CNC(=O)c1[nH]cnc1C(=O)Nc1ccc(Cl)cc1
  1.4, -3.8, -14.0, -4.3, 4.4, 4073, 5.3
CCn1c(SCC(=O)N2CCCCC2)nc2c(c1=O)SC(C)C2 (centres undefined)
  22.8, -8.9, -3.4, -0.4, 16.4, 4258, -4.6

(further entries)
Second line of a record – RN4220 kill, BJeLR lethal, PrP 5UTR inh, Mtb hypoxia inh growth, Sa ugtP lethal, Autofluor counter, Mtb hypoxia inh
CN(C)CCCNC(=O)C[C@H]1C[C@H](C(=O)N2CCCCC2)[C@@]2(CCc3ccccc3)c3[nH]c4cc(-c5ccco5)ccc4c3CCN2C1=O
  3.0, ·, -2.8, 12.1, -27.8, 3647, 0.5
CCn1cc(C(=O)Nn2cnnc2)c(=O)c2ccc(C)nc21
  1.5, 1.4, -28.7, -6.4, 3.4, 4431, -2.1
COc1cccc(C(=O)COc2ccc3c(C)c(Cc4ccccc4)c(=O)oc3c2)c1
  -3.3, -0.6, -6.3, 8.8, -2.4, 2130, -0.6
Cc1noc(C)c1CSc1nnnn1-c1ccc(Cl)cc1
  1.8, 3.4, -6.9, ·, -7.8, 4758, ·
NC(=O)N/N=C/c1cc(Br)ccc1OCC(=O)NCc1ccccc1
  ·, -4.9, -29.4, ·, ·, 7682, ·
C=CC[n+]1c(-c2ccc(C)cc2)csc1Nc1ccc(NC(C)=O)cc1
  5.1, 10.9, 71.1*, 16.4, -1.8, 4883, 3.7
COc1ccc(-n2nc(C(=O)NCCCN3CCCC3=O)c3c4ccccc4n(C)c3c2=O)cc1Cl
  1.3, -5.1, -19.6, -6.9, 3.7, 5146, -1.4
OCCC#Cc1ccc(CN2CCN(CCc3ccccc3)C(CCO)C2)cc1 (centres undefined)
  2.2, -1.3, -31.7, 1.5, 4.4, 3586, 8.5
Cc1nc(SCc2nc3ccccc3[nH]2)c2oc3ccc(Br)cc3c2n1
  21.3, ·, -20.0, 6.7, -0.9, 3826, -4.0
Cc1cc(Br)cn2ccnc12
  4.0, -9.8, -25.7, 13.2, -1.4, 22557*, 4.2

2 records picked at random from those above:
Second line of a record – RN4220 kill, BJeLR lethal, PrP 5UTR inh, Mtb hypoxia inh growth, Sa ugtP lethal, Autofluor counter, Mtb hypoxia inh
Cc1cc(Br)cn2ccnc12
  4.0, -9.8, -25.7, 13.2, -1.4, 22557*, 4.2
CCC(C)N(C(=O)Cn1nnc2ccccc21)C(C(=O)NCc1ccco1)c1cccc(OC)c1 (centres undefined)
  10.8, -2.9, -17.4, ·, -2.4, 5311, ·

(cont.)
Second line of a record – RN4220 kill, BJeLR lethal, PrP 5UTR inh, Mtb hypoxia inh growth, Sa ugtP lethal, Autofluor counter, Mtb hypoxia inh
CC(=NO)C(C)/[N+]([O-])=C/c1nc(C)c(C)n1O (centres undefined)
  -15.1, ·, ·, 0.5, -6.8, ·, -1.9
Cc1ccc(CN2C(=O)CCC2C(=O)NCCCN2CCOCC2)cc1 (centres undefined)
  -0.8, -9.5, -12.8, -8.6, -6.3, 2760, -4.2
CC(C)(C)[C@H]1C=C(C(=O)NC2CC2)O[C@@H](OCc2ccc(CO)cc2)C1
  ·, -4.0, 10.5, ·, ·, 3977, ·
Cc1ccc2[nH]c(C(=O)N3CCOCC3)cc2c1
  3.5, 3.6, 5.6, -2.0, -2.9, 3596, 6.1
CC(=O)C12CCCCC1CC1[C@@H]3CC(C)C4=CC(=O)CC[C@]4(C)C3CC[C@@]12C (some centres undefined)
  9.0, 18.9, -13.1, 0.8, 9.2, 3227, -8.6
c1ccc(N/N=C(\Cc2nc3ccccc3[nH]2)c2ccccc2)cc1
  ·, 0.8, -61.6, ·, ·, 2144, ·
CC1CC(Nc2ccccc2)c2ccccc2N1C(=O)c1ccco1 (centres undefined)
  2.5, 12.1, -12.7, -2.0, -3.8, 3126, 4.5
CCCSc1nc2c(cnn2-c2ccc(F)cc2)c(=O)[nH]1
  1.4, -0.8, -10.9, 4.7, 6.0, 6141, 6.5
COc1ccc(-n2ncc3c(NCC4CCCO4)ncnc32)cc1 (centres undefined)
  1.9, -6.4, -4.9, 22.5, -1.7, 3069, 7.1
CC(C)c1ccc(S(=O)(=O)NC2CCS(=O)(=O)C2)cc1 (centres undefined)
  -0.1, 1.6, 3.0, -3.0, -0.7, ?, 3.0

Profiles as entered above:
c1ccc(N/N=C(\Cc2nc3ccccc3[nH]2)c2ccccc2)cc1 as listed: RN4220 kill: ·; BJeLR lethal: 0.8; PrP 5UTR inh: -61.6; Mtb hypoxia inh growth: ·; Sa ugtP lethal: ·; Autofluor counter: 2144; Mtb hypoxia inh: ·
CC1CC(Nc2ccccc2)c2ccccc2N1C(=O)c1ccco1 (centres undefined) as listed: RN4220 kill: 2.5; BJeLR lethal: 12.1; PrP 5UTR inh: -12.7; Mtb hypoxia inh growth: -2.0; Sa ugtP lethal: -3.8; Autofluor counter: 3126; Mtb hypoxia inh: 4.5

Carrying on:
Second line of a record – RN4220 kill, BJeLR lethal, PrP 5UTR inh, Mtb hypoxia inh growth, Sa ugtP lethal, Autofluor counter, Mtb hypoxia inh
O=C(CN1CCOCC1)Nc1cc(Cl)ccc1Cl
  3.1, -5.2, -17.8, 1.7, 2.4, 10822, -0.4
Cc1cccc(-n2c(CNC(=O)c3ccc(S(=O)(=O)N4CCCC4)cc3)n[nH]c2=S)c1
  3.7, 16.2, -35.7, 6.0, -4.8, 10690, 0.5
COc1c2c(cc3ccc(=O)oc13)CCO2
  2.5, -1.9, 4.3, 8.5, 6.7, 3659, 16.7
Cc1cc(C)nc(SCC(=O)N2CCC(C(N)=O)CC2)n1
  4.2, 3.5, -16.2, 0.6, 5.8, 10289, 5.0
CCOc1ccccc1N1CC(C(=O)Nc2ccccc2N2CCOCC2)CC1=O (centres undefined)
  3.3, -5.8, -9.4, -0.3, -6.3, 4331, -4.2
Cn1c(Cc2ccccc2)nnc1SCC(=O)NC1CC1
  2.7, -3.2, -13.8, 7.6, 12.6, 5911, 4.6
CCC(=O)Oc1ccc(C(=O)Nc2ccc([N+](=O)[O-])cc2)cc1
  4.5, 24.9, -31.9, 6.8, 13.9, 3885, -3.4
NC(=O)CC(NC(=O)Cc1cccc2ccccc12)c1ccc(NCCc2cccc(F)c2)c([N+](=O)[O-])c1 (centres undefined)
  7.2, -1.4, -3.5, -23.3, 4.8, 3778, -5.4
Cc1ccc(S(=O)(=O)N2CCC(C(=O)OCCOc3ccccc3)CC2)cc1C
  -3.5, -8.5, -18.5, 0.0, 11.5, 4503, -3.3
O=C(NCCCCc1ccccc1)c1cccc(Br)c1
  11.7, -9.2, -19.5, 3.2, 5.5, 3967, 18.6

The results go on.
Second line of a record – RN4220 kill, BJeLR lethal, PrP 5UTR inh, Mtb hypoxia inh growth, Sa ugtP lethal, Autofluor counter, Mtb hypoxia inh
COCCOC(=O)c1c(C)oc2ccc(NS(=O)(=O)c3ccc(F)cc3)cc12
  6.6, 7.4, -18.5, -0.3, 4.1, 5232, 2.2
CC(=O)c1c(C)[nH]c(C(=O)OCC(=O)N2CCc3ccccc32)c1C
  11.4, 2.4, -52.7, ·, 7.9, 3275, ·
Nc1nonc1-n1nnc(C(=O)N/N=C/c2ccccn2)c1-c1ccccc1
  ·, -11.4, 3.6, ·, ·, ?, ·
COC(C/C=C\C(=O)[C@H](C)OCc1ccccc1)OC
  ·, -6.0, -9.0, ·, ·, 3685, ·
COc1ccc(C(=O)COC(=O)c2cccc(-n3cnnn3)c2)c(OC)c1
  0.8, -9.0, -33.7, 3.4, -3.1, 6390, -9.0
CCN(CCCNC(=O)CCNC(=O)Cn1cnc2ccccc2c1=O)c1ccccc1
  2.1, -13.2, -5.7, ·, 5.5, 3999, ·
N#Cc1cc([N+](=O)[O-])ccc1NC(=O)CSc1n[nH]c(=O)[nH]c1=O
  1.3, ·, 1.0, 17.2, 2.9, 3846, 1.7
CCOc1cc(C)ccc1OCc1nnc(SCC(=O)c2cccc([N+](=O)[O-])c2)n1CC
  0.7, -9.1, -11.0, 5.2, 13.0, 6607, 9.9
CC(=O)c1sc(N/N=C2\CC3CCC2(C)C3(C)C)nc1C (centres undefined)
  ·, 0.8, -28.4, ·, ·, 5374, ·
CN(c1ccccc1)c1nc(N)c([N+](=O)[O-])c(Nc2ccccc2F)n1
  -14.2, 1.5, 0.8, 7.0, -15.6, 4033, 3.4

Other compounds
Second line of a record – RN4220 kill, BJeLR lethal, PrP 5UTR inh, Mtb hypoxia inh growth, Sa ugtP lethal, Autofluor counter, Mtb hypoxia inh
Cc1ccc(C(=O)NCCSc2snnc2C)cc1
  -3.4, -13.0, -5.6, ·, 0.6, 2129, ·
O=C(N/N=C/c1cccnc1)c1ccccc1NS(=O)(=O)c1cccs1
  ·, 4.1, -5.0, ·, ·, 3881, ·
O=C(Nc1ccccc1C(F)(F)F)c1cc2ncc(CCCl)cn2n1
  7.1, -7.1, -47.3, 4.3, 2.8, 2463, 5.3
COc1ccccc1N1CCN(CC(O)COc2ccc3c(c2)OCO3)CC1 (centres undefined)
  -1.3, -8.1, -16.7, -6.4, 5.1, 2645, -10.1
O=S(=O)(Nn1cnnc1)c1ccccc1
  -0.9, -5.7, -16.1, 2.8, 4.2, 2390, 21.9
O=C(CSc1nnc(-c2ccco2)c(-c2ccco2)n1)c1ccccc1
  14.0, 9.3, -7.7, -5.1, -3.3, 2444, -5.0
Cc1cc(=O)oc2c(CN3CCN(C)CC3)c(O)c(Cl)cc12
  21.3, -2.2, 1.9, 1.9, 20.6, 2300, 4.0
Cc1ccc(NC(=O)c2ccc(NS(=O)(=O)/C=C/c3ccccc3)cc2)nc1
  5.6, 0.5, -8.5, -1.5, 9.4, 4489, -9.8
O=C(NC1CCCC1)c1cccc(S(=O)(=O)Nc2ccccc2F)c1
  5.2, ·, -3.7, 2.9, -4.2, 2895, 7.0
CC(=O)N1CCc2cc(S(=O)(=O)NC3CCCCC3)ccc21
  6.0, 3.3, -27.3, -6.8, 5.9, 3594, -4.1

New compounds follow
Second line of a record – RN4220 kill, BJeLR lethal, PrP 5UTR inh, Mtb hypoxia inh growth, Sa ugtP lethal, Autofluor counter, Mtb hypoxia inh
S=c1[nH]nc(COc2ccccc2)n1/N=C/c1ccc(Cl)cc1
  ·, -11.1, -15.7, ·, ·, 3682, ·
CCOC(=O)c1cc(C(=O)OCC)c(=O)[nH]c1SCc1ccccc1
  5.3, 3.3, 1.2, 8.5, -11.2, 3685, 6.3
CC1(C)CC(=O)C2=C(C1)Oc1ncn(CCCO)c(=N)c1C2c1ccccc1 (centres undefined)
  3.8, -1.9, -41.0, 8.8, 11.0, 6591, 6.4
CCOC(=O)C1=C(C)N=C2SCCC(=O)N2C1c1ccc(C(=O)OC)cc1 (centres undefined)
  2.3, -7.4, -1.4, 8.9, 1.9, 4044, 12.7

Looked up above.
CC(=O)N1CCc2cc(S(=O)(=O)NC3CCCCC3)ccc21 @ Mtb hypoxia inh: -4.1
O=C(NCCCCc1ccccc1)c1cccc(Br)c1 @ PrP 5UTR inh: -19.5
C=CC[n+]1c(-c2ccc(C)cc2)csc1Nc1ccc(NC(C)=O)cc1 @ Mtb hypoxia inh: 3.7

Assay outcomes: PubChem BioAssay, several laboratories
